Bioassay records (PubChem BioAssay)
SARS PLpro yeast: SARS-CoV PLP inhibition in yeast | S. cerevisiae expressing SARS-CoV PLpro, growth rescue; control for the full effect not named in the record | Potency, µM (highest dose often 32.9 µM), inactives show top-dose activity, positive = growth rescue | 330,000 compounds, 0.19% hits | AID 485353; active means well fitted rising curve with a large enough effect; inconclusive means small, poorly fitted or top-dose-only effect; inactive means no such curve, though single readings can be large or run the other way; further: 0% is about no effect; nearly all actives have a fitted effect of over 55% in size; growth read by luminescence after 48 h
MARV entry inh: blocks Marburg virus binding to or entry into cells | 300,000 compounds, 1.8% hits | Marburg virus pseudotyped entry inhibition, cell reporter; control for the full effect not named in the record; about a third of the inactives were read at about 46 µM | AID 540276 | Potency, µM (series often up to 37.8 µM), without a hit: at the highest dose activity change, negative = inhibition, actives largely listed as inhibitors; active = well fitted inhibition curve with a large enough effect; inconclusive = small, poorly fitted or top-dose-only effect, or effect the other way; inactive = flat fitted curve, though single readings scatter; tested in HEK293 cells; about a fifth of its hits are not listed in these tables; further: on the % scale 0 is the no-effect control and ±100 the full control effect; luciferase read-out
RE007 growth inh: less growth of the S. pombe RE007 Vpr strain; AID 651644; Potency, µM (doses to about 92.2 µM), for inactives: top-dose activity change, negative = less growth; S. pombe RE007 Vpr strain, BacTiter-Glo ATP luminescence, 24 h; control for the full effect not named in the record; 360,000 compounds, 0.21% hits; active = well fitted falling curve with a large enough effect; inconclusive = small, poorly fitted or top-dose-only effect; inactive = no such curve, though single readings can be large or run the other way;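 further: on the % scale 0 is the no-effect control and ±100 the full control effect; nearly all actives have a fitted effect of over 50% in size; the assay follows cell death caused by Vpr and the record does not say whether a fall means rescue or toxicity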
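Fission yeast strain RE007, carrying one chromosomally integrated HIV-1 vpr copy, was seeded at OD 0.01 in PMG+AL medium with 23 nL pinned compound. After 24 h at 30 °C and 99% humidity, viability was read by BacTiter-Glo luminescence.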
Cruzain noTriton: cruzain (T. cruzi) inhibition without detergent. 200,000 compounds, 2.3% hits. Potency, µM, for the others: max response, negative = inhibition, most hits filed as inhibitors. purified cruzain, Z-FR-AMC fluorescence, no detergent. P25779;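 further: plate controls were enzyme without inhibitor for no effect and buffer without enzyme for full effect; nearly all actives have a fitted effect of over 40% in size; top concentration of the series not given in the record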
Target sequence (P25779 123-467 limits assumed): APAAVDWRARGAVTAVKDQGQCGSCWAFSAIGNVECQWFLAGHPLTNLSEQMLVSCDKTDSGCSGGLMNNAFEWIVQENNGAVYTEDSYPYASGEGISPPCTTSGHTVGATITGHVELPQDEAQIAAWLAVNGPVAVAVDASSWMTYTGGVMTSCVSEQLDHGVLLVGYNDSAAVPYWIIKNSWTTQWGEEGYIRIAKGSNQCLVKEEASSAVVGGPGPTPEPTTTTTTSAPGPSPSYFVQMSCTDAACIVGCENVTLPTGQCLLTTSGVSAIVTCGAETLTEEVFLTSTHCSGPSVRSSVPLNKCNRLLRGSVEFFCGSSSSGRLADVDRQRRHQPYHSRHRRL
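Detergent-free condition (0.00005% Triton X-100) in acetate buffer pH 5.5 with DTT. 1.5 nM enzyme and compound were pre-mixed 15 min, then 2 uM Z-FR-AMC substrate added; reaction progress from fluorescence change between first and third reads (60 s).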
StopGo reporter: lowers the luciferase signal of an FMDV 2A StopGo reporter. human cells with a luciferase reporter of 2A StopGo recoding; control for the full effect not named in the record. Potency, µM (top dose mostly 57.9 µM), inactives show at the highest dose signal change, negative = less light. 410,000 compounds, 1.2% hits. AID 1159524; active = well fitted falling curve with a large enough effect; inconclusive = small, poorly fitted or top-dose-only effect; inactive = no such curve, though single readings can be large or run the other way; tested in HEK293T cells; further: on the % scale 0 is the no-effect control and ±100 the full control effect; nearly all actives have a fitted effect of over 45% in size; luciferase light after 4 h
NS1 inh: inhibitors of influenza NS1 protein function. S. cerevisiae slowed by influenza A NS1, growth recovery by OD600. Potency, µM (highest dose often 46.1 µM), without a hit: at the top dose activity, positive = more growth. 270,000 compounds, 0.4% hits. AID 2326; active means well fitted rising curve with a large enough effect; inconclusive means small, poorly fitted or top-dose-only effect; inactive means no such curve, though single readings can be large or run the other way; further: nearly all actives have a fitted effect of over 50% in size
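Compounds were scored for reversing the slow growth caused by influenza A NS1 in S. cerevisiae, measured by optical density at 600 nm. Assay medium contained 2% galactose at pH 6.0; NS1-free yeast of the same strain were the positive control.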
Cruzain Triton: cruzain (T. cruzi) inhibition with detergent | P25779 | purified cruzain, Z-FR-AMC fluorescence, 0.01% Triton | Potency, µM, for inactives: max response, negative = inhibition, hits mostly inhibitors | 200,000 compounds, 0.43% hits | AID 1478;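 further: plate controls were neutral wells for no effect and buffer without enzyme for full effect; nearly all actives have a fitted effect of over 40% in size; top concentration of the series not given in the record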
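Read-out: AMC fluorescence (360 nm excitation, 450 nm emission), four reads over 2 min, first-to-third difference used. Conditions: cruzain 1.5 nM, Z-FR-AMC 2 uM, pH 5.5 acetate, 5 mM DTT, 0.01% Triton X-100.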
LASV entry inh: inhibitors of Lassa virus binding or cell entry | 300,000 compounds, 1.2% hits | AID 540256 | Potency, µM (highest dose often 37.9 µM), for inactives: at the top dose activity change, negative = inhibition, hits mostly inhibitors | Lassa virus pseudotype entry inhibition, cell reporter; control for the full effect not named in the record; active means well fitted inhibition curve with a large enough effect; inconclusive means small, poorly fitted or top-dose-only effect, or effect the other way; inactive means flat fitted curve, though single readings scatter; tested in HEK293 cells; further: on the % scale 0 is the no-effect control and ±100 the full control effect; nearly all actives have a fitted effect of over 50% in size; luciferase read-out
Starred values were filed as active, the others as inactive; ? = inconclusive; / = not tested or not shown; [ ] = another dose, or the depositor's remark. Unless noted, the call rests on the fitted dose curve; in most records, active means well fitted curve in the direction sought with a large enough effect; inconclusive means small, poorly fitted or top-dose-only effect, or another doubt; inactive means no such curve, though single readings can be large; an effect the other way counts as inactive or inconclusive. Potency means the concentration at half of the fitted maximal effect.

#	structure	SARS PLpro yeast	MARV entry inh	RE007 growth inh	Cruzain noTriton
1	S=c1[nH]nc(CSCc2ccc(Cl)cc2Cl)n1-c1ccccc1	-19%	0%	4%	-6%
2	O=C(c1cc2cc(Br)ccc2s1)N1CCOCC1	-3%	-1%[46.1 µM]	17%	/
3	Cc1ccc(NC(=O)COC(=O)c2cc(Cl)ccc2[N+](=O)[O-])c(C)c1	5%	4%	6%	-3%
4	CCn1nc(C)c(NC(=O)Nc2cccc(Cl)c2Cl)c1C	0%	?	6%	/
5	O=C(CC1NCCNC1=O)Nc1ccc(Cl)c(Cl)c1 (stereo not given)	1%	?	1%	-12%
6	CCN(CC)S(=O)(=O)c1cc(C(=O)OCC(=O)Nc2cccc(Br)c2)ccc1F	1%	?	-8%	8%
7	CCOC(=O)c1c(C)[nH]c(C)c1S(=O)(=O)N1CCC(C(=O)N2CCN(c3ccccc3F)CC2)CC1	/	/	/	?
8	O=C(NCCCCCCNC(=O)C1CCCC1)C1CCCC1	-7%	17%	-3%	-1%
9	CCC(C)(NC(=O)c1ccc2c(c1)OCO2)C(=O)NC1CCCCC1 (stereo not given)	-6%	19%[46.1 µM]	21%	/
10	CC/C(=N\NC(=S)NC(C)C)c1ccc(OC)c(OC)c1	?	?	9%	/
11	O=C(NC(=S)Nc1ccc(CN2CCOCC2)cc1)c1ccc([N+](=O)[O-])cc1Cl	0%	?	-16%	/
12	CN1CCN(CCCNC(=O)c2cnn(-c3ccccc3)c2-n2cccc2)CC1	/	-20%[46.1 µM]	/	0%

#	StopGo reporter	NS1 inh	Cruzain Triton	LASV entry inh
1	?	-4%	-7.5%	4%
2	-3%	/	/	?
3	-13%	2%	-6.6%	3%
4	25%	3%	/	14%[46.1 µM]
5	15%	0%	-3.8%	5%
6	-10%	18%	-6.3%	16%
7	-4%	/	0.4%	-12%[46.1 µM]
8	-7%	11%	0.7%	6%
9	4%	/	/	15%
10	-23%	/	/	?
11	-22%	/	/	13%[46.1 µM]
12	15%	/	-1.3%	?

Other structures.
#	structure	SARS PLpro yeast	MARV entry inh	RE007 growth inh	Cruzain noTriton
13	O=[N+]([O-])c1cc(S(=O)(=O)Oc2ccccc2)ccc1Cl	/	?	10%	/
14	O=C(Nc1cc(-c2nc3ncccc3o2)ccc1Cl)c1cccs1	-4%	-14%	?	/
15	O=C(COc1ccc(F)cc1)NCCc1nc2ccccc2[nH]1	/	?	/	-8%
16	Cc1nn(C)c(C)c1C(=O)NN	4%	4%	7%	-13%
17	CC(=O)N1CCc2c(sc(NC(=O)c3ccc([N+](=O)[O-])o3)c2C#N)C1	0%	/	3%	/
18	Fc1ccc(C(c2nnnn2C2CCCC2)N2CCN(Cc3ccncc3)CC2)cc1 (stereo not given)	-2%	13%[46.1 µM]	-1%	10%
19	O=C(c1ccc(C(F)(F)F)cc1)c1c[nH]c(C(=O)NCCCn2ccnc2)c1	-7%	-28%	?	5%
20	Cc1ccc2[nH]c(=O)c3cc(C(=O)NCCC(C)C)sc3c2c1	0%	/	13%	/
21	O=C(N/N=C/C=C/c1ccccc1)c1ccccn1	-3%	2%[46.1 µM]	-7%	/
22	CCOc1ccc(N=Cc2c(O)n(-c3cc(C)cc(C)c3)c(=O)[nH]c2=O)cc1	0%	3%[46.1 µM]	-3%	/
23	COc1cc(C(=O)N2CCC3(CC2)NCCc2[nH]cnc23)cc(OC)c1OC	-1%	17%[46.1 µM]	-5%	/
24	Cc1ccc(S(=O)(=O)c2c(C)nn(-c3ccccc3)c2OC(=O)c2ccccc2F)cc1	/	10%[46.1 µM]	/	4%

#	StopGo reporter	NS1 inh	Cruzain Triton	LASV entry inh
13	?	/	/	?
14	0%	-30%	/	1%
15	-7%	/	1.6µM*	5%[46.1 µM]
16	13%	5%	2.1%	7%
17	36%[activator]	4%	/	/
18	11%	-11%	-0.5%	-11%
19	-17%	5%	1.5%	-21%
20	-27%	-1%	/	/
21	21%	-4%	/	13%[46.1 µM]
22	-14%	6%	/	-2%[46.1 µM]
23	0%	0%	/	24%[46.1 µM]
24	34%[activator]	/	-0.8%	14%[46.1 µM]

Record cards, from the list above. Order of screens: SARS PLpro yeast	MARV entry inh	RE007 growth inh	Cruzain noTriton	StopGo reporter	NS1 inh	Cruzain Triton	LASV entry inh
Shown for S=c1[nH]nc(CSCc2ccc(Cl)cc2Cl)n1-c1ccccc1 : -19%	0%	4%	-6%	?	-4%	-7.5%	4%
Shown for CC/C(=N\NC(=S)NC(C)C)c1ccc(OC)c(OC)c1 : ?	?	9%	/	-23%	/	/	?
Shown for O=C(COc1ccc(F)cc1)NCCc1nc2ccccc2[nH]1 : /	?	/	-8%	-7%	/	1.6µM*	5%[46.1 µM]
Shown for O=C(CC1NCCNC1=O)Nc1ccc(Cl)c(Cl)c1 (stereo not given) : 1%	?	1%	-12%	15%	0%	-3.8%	5%
Shown for CCN(CC)S(=O)(=O)c1cc(C(=O)OCC(=O)Nc2cccc(Br)c2)ccc1F : 1%	?	-8%	8%	-10%	18%	-6.3%	16%

Next section.
#	structure	SARS PLpro yeast	MARV entry inh	RE007 growth inh	Cruzain noTriton
25	Cc1ccc(C2(CC(=O)N3CCCC3)CCOC(C(C)C)C2)cc1 (stereo not given)	3%	-11%	-12%	25%
26	C#CC[N+]1(CC#Cc2ccccc2)CCCCC1	-2%	19%[46.1 µM]	-4%	/
27	CSc1n[nH]c2nc3c(c(=O)n12)C1(CCCC1)Cc1ccccc1-3	-4%	3%	/	-4%
28	Cc1c(C(=O)N/N=C/c2ccccc2)[nH]c2c([N+](=O)[O-])cccc12	-1%	?	3%	/
29	COc1ccc(N2CCN(Cc3nnc(-c4ccccc4)o3)CC2)cc1	-8%	-1%	8%	14%
30	COC(=O)c1sc(-c2ccc(C(C)(C)C)cc2)cc1NC(=O)CCC(=O)O	-12%	/	?	/
31	COc1ccccc1NS(=O)(=O)c1ccc(C(=O)N2CCCC(C)C2)cc1 (stereo not given)	?	/	-5%	/
32	COc1ccc(-c2cc(C(=O)N3CCCCCC3)c3ccccc3n2)c(OC)c1	-12%	0%[46.1 µM]	5%	/
33	CC(=O)NC(Cc1cccc(F)c1)C(=O)NC1CCN(c2nnnn2-c2ccccc2)CC1 (stereo not given)	-1%	-1%	-15%	/
34	O=C(/C=C/c1cc(Br)ccc1F)Nc1cccnc1	-14%	?	-18%	/
35	COCCn1c(=O)c2c(nc3n2CCCN3Cc2ccccc2)n(C)c1=O	0%	10%[46.1 µM]	7%	/
36	CC(C)CC1C(C#N)=C(N)SC(N)=C1C#N	2%	20%	9%	-2%

#	StopGo reporter	NS1 inh	Cruzain Triton	LASV entry inh
25	-21%	-2%	3.7%	-5%
26	-7%	/	/	-2%
27	0%	-4%	-9.7%	-13%
28	-14%	-3%	/	?
29	2%	-8%	-3.8%	0%
30	8%	3%	/	/
31	?	-6%	/	/
32	-25%	-49%	/	?
33	-28%	3%	/	7%
34	12%	-43%	/	6%[46.1 µM]
35	-12%	-4%	/	-7%[46.1 µM]
36	-9%	-5%	-3.4%	6%

Continued.
#	structure	SARS PLpro yeast	MARV entry inh	RE007 growth inh	Cruzain noTriton
37	CSc1cccc(NC(=O)N2CCN(c3cc(-c4noc(C)n4)ccc3C)CC2)c1	/	/	/	-6%
38	COc1ccc2cc(-c3[nH]ncc3CN3CCCC3c3nonc3C)ccc2c1 (stereo not given)	-1%	/	-8%	/
39	CN(C(=O)COC(=O)c1n[nH]c2ccccc12)C1CCS(=O)(=O)C1 (stereo not given)	0%	4%	0%	2%
40	O=c1c(Cl)c(Cl)cnn1Cc1ccccc1Cl	-48%	6.5µM*	2%	-26%
41	CCn1c(=S)sc2c(=O)n(CC(=O)Nc3ccccc3)c(C)nc21	14%	/	4%	/
42	COC(=O)[C@@H]1CC[C@H](C)[C@@H](c2ccc(C)cc2)N1C(=O)c1ccc(/C=N/OC[C@@H](O)COCc2ccco2)cc1	-1%	?	/	?
43	CCOC(=O)c1[nH]c(C)c(CCC(=O)N2CCN(c3cc(C)ccc3C)CC2)c1C	/	/	/	?
44	CCSc1nnc(-c2ccc(Cl)cc2Cl)o1	-3%	-5%	?	0%
45	CC(C)(C)CC(=O)O/N=C(\N)c1ccncc1	-2%	3%[46.1 µM]	0%	/
46	CCN1C(=O)CCCc2ccccc21	-1%	?	4%	/
47	Cc1c(Br)c([N+](=O)[O-])nn1CC(=O)Nc1sc2c(c1C(=O)OC(C)C)CCCC2	10%	-20%	46%	13µM*
48	Cc1ncc(COC(=O)C(C)C)c2cc(C(=O)Nc3ccccc3C(F)(F)F)c(=O)oc12	/	/	/	13%
49	Cn1cnc([N+](=O)[O-])c1NC(C)(C)C	5%	-10%	10%	-4%
50	COC(=O)c1cc2c(cc1NC(=O)c1cnn(-c3ccc(C)cc3)c1-n1cccc1)OCO2	/	/	/	-5%

#	StopGo reporter	NS1 inh	Cruzain Triton	LASV entry inh
37	-26%	/	-2.1%	-15%[46.1 µM]
38	-22%	0%	/	/
39	-14%	6%	-0.2%	10%
40	25µM*	?	-4.6%	13µM*
41	-23%	-1%	/	/
42	/	-24%	-9.9%	?
43	?	/	-5.9%	?
44	0%	-16%	-1.8%	?
45	32%[activator]	-2%	/	7%
46	1%	7%	/	-4%[46.1 µM]
47	-2%	-1%	1.6%	7%
48	-17%	/	-1.6%	28%[46.1 µM]
49	-19%	3%	1.5%	-1%
50	-6%	/	-2.2%	-4%[46.1 µM]
